Source: PubChem BioAssay
UCH37 DUB inh = human UCH37 deubiquitinating enzyme inhibition. purified proteasome/UCH37, Ub-AMC cleavage fluorescence. inhibition, % (concentration not given with the values). hit rate 0.33% among 330,000;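 active means mean of two replicates above 20%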;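 further: 0% = compound-free wells with enzyme and 100% = wells lacking proteasome; stock transfer was 100 nL into about 20 µL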
Target sequence (Q9Y5K5 whole entry, looked up): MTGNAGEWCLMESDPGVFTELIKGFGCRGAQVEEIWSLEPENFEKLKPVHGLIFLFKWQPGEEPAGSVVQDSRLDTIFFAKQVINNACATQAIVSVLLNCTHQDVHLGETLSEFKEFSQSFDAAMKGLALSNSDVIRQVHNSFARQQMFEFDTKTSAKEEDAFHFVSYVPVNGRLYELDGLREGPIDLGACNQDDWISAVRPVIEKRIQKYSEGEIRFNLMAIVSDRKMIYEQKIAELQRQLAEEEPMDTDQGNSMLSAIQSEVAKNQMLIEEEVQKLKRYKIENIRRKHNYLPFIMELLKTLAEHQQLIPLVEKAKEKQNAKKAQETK
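Material: Human UCH37 enzyme supplied as purified proteasome complex | Schedule: 30 min preincubation with enzyme, 25 min cleavage at room temperature | Detection: AMC fluorescence 355/460 nm | Measure: % inhibition of Ub-AMC cleavage fluorescence | Controls: Wells without proteasome as full block, compound-free enzyme plus substrate as uninhibited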
FGF22 binding = shifts melting point of recombinant human FGF22; recombinant FGF22 thermal shift, SYPRO orange fluorescence; percent of sucrose octasulfate shift, DMSO zero; calls only at 9.99 µM; AID 651658; Q9HCT0; hit rate 1.5% among 340,000;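 active means melting point raised past a set limit in the mean and every replicate; three in four hits are not shown here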
T cruzi repl = blocks replication of Trypanosoma cruzi. T. cruzi beta-gal in NIH3T3, luminescence, 90 h. inhibition, % (no concentration beside the values). hit rate 1.4% among 300,000. AID 1885;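 active means mean inhibition across valid replicates above about 55%, limit read from the data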;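 further: signal also drops with host cell toxicity which is not excluded here; 0% = plate median of DMSO wells and 100% = zero luminescence signal; higher percent means less beta-gal luminescence so fewer parasites; stock transfer was 50 nL into about 50 µL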
MLL AF4-AF9 inh = MLL-AF4/AF9 protein interaction inhibition. P42568. AlphaScreen, biotin-AF4 peptide binding to FLAG-AF9. inhibition, % at 10 µM. hit rate 0.47% among 350,000. AID 651704;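 active means every replicate reaching a set inhibition limit, whatever the replicate mean, cut at about 25% in these data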;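 further: 0% = plate neutral control median and 100% = total signal loss; the record names both 10 and 1 µM as test concentration; the first replicate is given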
Target sequence (P42568 whole entry, looked up): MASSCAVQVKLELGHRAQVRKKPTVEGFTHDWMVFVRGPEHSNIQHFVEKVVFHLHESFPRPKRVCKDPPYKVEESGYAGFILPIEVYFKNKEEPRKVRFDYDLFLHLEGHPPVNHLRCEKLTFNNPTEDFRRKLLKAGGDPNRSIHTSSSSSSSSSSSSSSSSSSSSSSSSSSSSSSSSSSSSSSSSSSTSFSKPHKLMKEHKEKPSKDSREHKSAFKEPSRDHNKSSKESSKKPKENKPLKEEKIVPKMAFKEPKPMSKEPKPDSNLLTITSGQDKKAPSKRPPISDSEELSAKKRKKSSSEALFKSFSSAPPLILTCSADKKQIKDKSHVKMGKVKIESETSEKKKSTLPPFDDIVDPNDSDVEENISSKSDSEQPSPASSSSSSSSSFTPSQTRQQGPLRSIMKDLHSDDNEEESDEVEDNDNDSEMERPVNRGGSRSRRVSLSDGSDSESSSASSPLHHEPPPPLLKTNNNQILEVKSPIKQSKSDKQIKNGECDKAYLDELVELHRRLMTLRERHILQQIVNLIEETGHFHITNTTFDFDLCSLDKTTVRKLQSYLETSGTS
Bfl-1 A1 inh = inhibitors of the anti-apoptotic protein A1, read as caspase activation. MEF A1-2A-BIM cells, Caspase-Glo 3/7 luminescence, 3 h; percent of clofoctol response, vehicle zero. AID 2462. caspase activation, % (concentration not given with the values). hit rate 0.066% among 330,000;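 active means over half of replicate activation scores above 10%, or exactly half above 10 with the replicate mean above 10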;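 further: wells of about 30 µL received 50 nL stock; many hits fall short of the cut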
E coli growth = inhibitors of Escherichia coli growth; OD600, 23 h; stronger effect = lower value; OD600 absorbance (concentration not given with the values); hit rate 0.21% among 330,000; AID 1053175;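 active means OD600 absorbance below the run mean of sample wells minus 3.6 SD, in any replicate, cut at about 0.56 in these data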;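 further: stock transfer was 300 nL into about 60 µL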
Beta apoptosis = beta cell apoptosis inhibition; INS-1E cytokine-induced death, ATP luminescence, 48 h; percent of positive-control rescue, neutral wells zero; protection from apoptosis, % (concentration not given with the values); hit rate 0.8% among 300,000; AID 435005;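 active means all replicates at 75% or more, or half of them and the mean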;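 further: 0% = cytokine-treated negative control wells and 100% = positive control rescue; higher means more ATP so stronger rescue from cytokine killing; wells of about 40 µL received 100 nL stock; the first replicate is given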
rRNA inh HTS = inhibits bacterial ribosomal RNA function over humanized ribosomes | E. coli WT GFP vs humanized-ribosome RFP mutants, fluorescence, 24 h; stronger effect = lower value; DMSO median 0, no signal -100 | GFP signal change (wild-type ribosome), % (concentration not given with the values) | hit rate 1.6% among 350,000 | AID 720706;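 active means significant combined selectivity score with lowered wild-type GFP, culture density cut under 30%, mutant RFP and density less affected; inactive means any of these conditions unmet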; further: one replicate is shown; some compounds called inactive have numbers as strong as hits
rRNA inh HTS OD600 = second read-out of rRNA inh HTS, no call of its own (marks repeat the call); OD600 change, %; measured here: OD600 growth;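 optical density of the mix in the first replicate; 0 = DMSO median and -100 = no signal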
rRNA inh HTS RFP = also measured in rRNA inh HTS; calls as there; RFP signal change, %; measured here: RFP humanized mutant strains;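 first replicate; 0 = DMSO median and -100 = no signal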
* hit, by the source's call; i = inactive; · = not tested or not shown.

Sequence of screens: UCH37 DUB inh	FGF22 binding	T cruzi repl	MLL AF4-AF9 inh	Bfl-1 A1 inh	E coli growth	Beta apoptosis	rRNA inh HTS	rRNA inh HTS OD600	rRNA inh HTS RFP
> COc1ccc(-c2nnc(NC(=O)c3ccc([N+](=O)[O-])o3)o2)c(OC)c1
→ 14	i	2	-1.0	0.2	0.65	-1	-1	0	-0.9
> Cc1ccc(C(=O)Nc2ccccc2SCC2CSc3nc4ccccc4c(=O)n32)cc1 (centres undefined)
→ 2.8	·	4	·	1.5	0.77	7	·	·	·
> COc1ccc(-c2oc3cccnc3c2-c2ccc(OC)nc2)cc1
→ -37	i	12	7.6	-0.9	0.66	·	-42	-57	-8.7
> CN1CCN(C(=S)c2cn(Cc3ccccc3F)c3ccccc23)CC1
→ 3.8	i	3	-1.7	-0.4	0.65	-3	-33	-35	-8.2
> COC(=O)C1(O)CC(C(C)C)=NN1C(=O)c1ccccc1 (centres undefined)
→ 5.3	i	-4	-2.0	0.0	0.67	·	4	3	-2.6
> Cc1ccccc1C(=O)Oc1cc(N)n(S(C)(=O)=O)n1
→ 2.3	i	-8	2.4	-0.2	0.66	-4	16	6	-1.1
> Cc1cccc(C)c1NC(=O)CCn1cnc2ccccc2c1=O
→ 3.4	i	5	-1.5	-0.7	0.65	-1	14	7	3.0
> CSc1ccccc1C(=O)NCc1ccc2c(c1)OCO2
→ 1.5	·	2	·	0.9	0.65	-5	2	-7	-1.3
> COC(=O)CCCCCCCCC(=O)Nc1nc2ccccc2s1
→ 1.7	·	-4	·	0.0	0.71	0	·	·	·
> O=C(Nc1ccc(C(F)(F)F)cc1)C1CCCN1S(=O)(=O)c1cccc2cccnc12 (centres undefined)
→ 3.0	·	10	·	0.1	0.65	10	·	·	·
> O=C(COC(=O)C12CC3CC(CC(C3)C1)C2)Nc1ccc([N+](=O)[O-])cc1Br
→ 1.8	·	-6	·	-0.6	0.62	3	·	·	·
> CC12CCC(C(=O)Nc3ccc(SC(F)F)cc3)(CC1=O)C2(C)C (centres undefined)
→ 7.1	·	14	·	0.0	0.69	19	·	·	·
> NN=C(c1ccccc1)c1ccccc1
→ 2.4	i	-3	4.8	-0.4	0.68	-2	9	-3	-3.0
> CN(CC1CCCN(CCc2cccc(C(F)(F)F)c2)C1)C(=O)c1ccc2nc[nH]c2c1 (centres undefined)
→ 1.3	i	49	6.5	1.3	0.66	0	11	-1	1.9
> CCCCc1nc2ccccc2c(NC(=O)CN(CC)CC)c1CCC
→ 1.3	·	-1	·	-0.6	0.73	-2	·	·	·
> Cc1cc2c(c(SCC(=O)NCc3ccccc3Cl)n1)C(=O)OC2
→ 0.4	i	-8	-2.2	-0.6	0.73	-1	0	-3	-1.5
> CC(=O)Nc1ccc(S(=O)(=O)Nc2ccc(C)c([N+](=O)[O-])c2)cc1
→ 4.7	i	-7	2.2	0.3	0.65	3	-26*	-4.2*	3.3*
> O=C(OCN1C(=O)c2ccccc2C1=O)/C(=C\c1ccco1)NC(=O)c1ccccc1
→ 2.5	·	-16	·	-0.1	0.7	-3	·	·	·
> O=C(c1ccco1)N1CCN(C(=O)c2cc3c(=O)oc4ccccc4c3s2)CC1
→ 1.6	·	-19	·	0.7	0.76	4	·	·	·
> O=C(Cc1ccc2c(c1)CCCC2)Nc1ccccc1Br
→ 1.9	i	14	-3.1	-0.4	0.64	·	14	6	1.4
> O=C(CN1CCCc2ccccc21)NCc1ccccc1Cl
→ 3.8	·	1	·	1.4	0.63	-2	·	·	·
> CCCc1nc(SCC(=O)c2ccc(OC)cc2)c2ccccc2n1
→ 6.1	i	24	-8.3	-0.1	0.71	-4	-17	-8	-11
> COc1ccc(CCNCc2ccc(OCC(=O)N3CCCCC3)c(OC)c2)cc1OC
→ -0.9	i	57*	-58	-0.8	0.7	0	12	7	-0.1
> Fc1cccc2ncnc(OCc3ccccc3)c12
→ 1.1	i	-18	0.2	-0.7	0.66	-3	-31*	-18*	-2.4*
> COc1cccc(NC(=O)CN(C)C(=O)c2ccc(OCc3ccccc3)c(OC)c2)c1
→ 1.9	i	4	-0.6	-1.0	0.7	1	-6	-12	1.7
> COC(=O)C1=C(C)n2nnnc2NC1c1cc2ccccc2o1 (centres undefined)
→ -4.0	·	2	·	-0.3	0.64	0	·	·	·
> Cn1c(=O)n(C)c2cc(S(=O)(=O)N3CCCc4ccccc43)ccc21
→ 2.1	·	4	·	0.0	0.68	-10	·	·	·
> COc1cc(/C=C/C(=O)OC(C)C(=O)Nc2c(C)n(C)n(-c3ccccc3)c2=O)ccc1OCC#N (centres undefined)
→ -21	i	12	-1.7	0.5	0.69	3	-1	2	-11
> CCOc1ccc(C(=O)Nc2ccccc2C#N)cc1[N+](=O)[O-]
→ 0.8	·	-15	·	-0.3	0.69	0	·	·	·
> Cc1ccc(S(=O)(=O)NCc2csc(C)n2)cc1
→ 2.0	i	-1	-1.6	-0.1	0.68	5	2	10	-2.7
> O=C(Nc1ccccc1C(=O)N1CCOCC1)c1ccc(Br)cc1
→ -4.8	·	-9	·	0.0	0.7	-4	·	·	·
> CC1(C)c2[nH]c3ccccc3c2C[C@H]2C(=O)N(Cc3ccc(F)cc3)C(=O)N21
→ -0.1	i	18	8.7	0.5	·	5	-33	-70	-12
> CC1CCCC(C)N1C(=O)c1cc(-c2ccc(Cl)c(Cl)c2)on1 (centres undefined)
→ 4.7	·	28	·	0.5	0.74	1	·	·	·
> O=C(COc1ccccc1)N1N=C(c2cccnc2)CC1(O)C(F)(F)F (centres undefined)
→ 3.9	·	-15	·	0.9	0.72	-1	·	·	·
> O=C(NCc1cccs1)[C@@H]1CSC2c3ccccc3C(=O)N21 (some centres undefined)
→ 4.1	·	-4	·	0.7	0.76	-20	·	·	·
> O=C(Cc1ccc(Cl)cc1)Oc1cccc2cccnc12
→ -2.0	·	·	·	0.1	0.69	-1	·	·	·
> C[C@@H]1C=C(C(=O)NCc2nc3ccccc3[nH]2)O[C@H](OCc2ccc(CO)cc2)C1
→ 3.1	i	-4	-8.9	-0.5	·	-8	11	22	-1.0
> Cc1ccc(O)c(CO)n1
→ -11	i	11	-19	0.0	0.66	-7	4	4	-4.5
> Cc1ccc(NC(=O)Nc2ncccc2C)cc1
→ 3.1	·	-13	·	-2.6	0.71	4	·	·	·
> CSc1nc(=O)n(-c2ccccc2)c(C)c1C(C)=O
→ 5.1	·	-8	·	-3.0	0.73	0	·	·	·
> CCN1CCN(Cc2c(C)[nH]c3ccc(C(=O)OC)cc3c2=O)CC1
→ 0.7	·	7	·	0.3	0.71	-3	·	·	·
> Cc1ccc(F)cc1NC(=O)N1CCCN(C(=O)OC(C)(C)C)CC1
→ -1.2	i	-14	-6.7	-0.6	0.65	6	3	-3	2.2
> COc1ccc(C2/C(=C(/O)c3ccc(OC(C)C)cc3)C(=O)C(=O)N2CCCN2CCOCC2)cc1 (centres undefined)
→ 5.1	·	-15	·	-1.0	0.71	-4	·	·	·
> CCc1ccccc1NC(=O)c1onc(C)c1Cl
→ 1.5	i	-3	-8.1	0.2	0.66	-2	-1	-2	-1.9
> CN(C)S(=O)(=O)Oc1ccc(Cl)cc1C(=O)Nc1ccc(F)cc1F
→ 0.2	i	1	-3.2	1.2	0.68	-18	-7	-7	-1.2
> CCOCCCNC(=O)C(c1ccccc1)N(Cc1ccc2c(c1)OCO2)C(=O)CNC(C)=O (centres undefined)
→ 1.5	·	-4	·	1.1	0.7	-1	4	2	-3.9
> O=C(CNC(=O)c1ccc(Cl)cc1)Nc1ccc(S(=O)(=O)Nc2ncccn2)cc1
→ 5.0	i	2	-0.5	-0.6	0.71	-2	9	5	-6.6
> CCN(CC)C(=O)Cn1ncc2c1-c1ccccc1OC2
→ 0.8	i	5	-4.7	0.8	0.7	-3	4	3	-3.7
> COc1cc(NS(=O)(=O)c2ccc(NC(C)=O)cc2)cc(OC)c1
→ 0.7	·	-7	·	-0.5	0.69	25	·	·	·
> CCN(CC)C(=O)[C@H]1C[C@H](CC(=O)NCCN2CCOCC2)C(=O)N2CCc3c([nH]c4cc(CCC(=O)N(C)C)ccc34)[C@]12C
→ 2.1	i	·	-1.8	·	0.68	·	4	12	-3.9
> S=C1NC(c2ccccc2)=NCN1c1ccc(Cl)cc1
→ 1.2	·	-10	·	0.4	0.72	-3	·	·	·
> COc1ccccc1NC(=O)CSc1nnnn1-c1ccccc1OC
→ -0.5	i	2	-7.7	1.6	0.69	1	-14	-16	0.2
> NS(=O)(=O)c1cccc(NC(=O)COC(=O)/C(=C/c2cccs2)c2cccs2)c1
→ -12	·	8	·	1.7	0.69	1	·	·	·
> O=C(CN1CCN(Cc2ccc(Cl)cc2)CC1)N/N=C/c1ccccc1F
→ ·	i	-13	6.5	1.4	·	·	3	1	5.7
> Cc1ccn2cc(CSc3ccccc3)nc2c1
→ 0.2	·	-18	·	-3.7	0.63	4	·	·	·
> COCCNC(=O)c1cn(CCOC)c(=O)c2c1c1ccccc1n2C
→ -92	i	-3	-1.8	1.6	0.69	-2	9	11	-2.4
> CC1CCN(C(=O)c2scc3c2OCCO3)CC1
→ 1.3	·	-16	·	0.8	0.73	-7	·	·	·

Arranged by SMILES length (descending): some entries from above.
Sequence of screens: UCH37 DUB inh	FGF22 binding	T cruzi repl	MLL AF4-AF9 inh	Bfl-1 A1 inh	E coli growth	Beta apoptosis	rRNA inh HTS	rRNA inh HTS OD600	rRNA inh HTS RFP
> O=C(CNC(=O)c1ccc(Cl)cc1)Nc1ccc(S(=O)(=O)Nc2ncccn2)cc1
→ 5.0	i	2	-0.5	-0.6	0.71	-2	9	5	-6.6
> O=C(CN1CCN(Cc2ccc(Cl)cc2)CC1)N/N=C/c1ccccc1F
→ ·	i	-13	6.5	1.4	·	·	3	1	5.7
> CCc1ccccc1NC(=O)c1onc(C)c1Cl
→ 1.5	i	-3	-8.1	0.2	0.66	-2	-1	-2	-1.9

The list is partial; the hit share may differ from the screen's.
